Bioassay records: PubChem, several laboratories
LANA-H2B inh: blockers of LANA interaction with H2A/H2B – biochemical, FP readout, HTS, primary screen. inhibition, % (concentration not given with the values). AID 2629, 2010. cell-free LANA-H2A/H2B peptide, fluorescence polarization. Protein LANA1 (Human herpesvirus 8 type P (isolate GK18)), Q9QR71. 320,000 tested, 0.6% active; in the data active = inhibition mostly above about 10%, no sharp cut-off; inactive = mostly below about 6.7%;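 note: stock transfer was 7.5 nL into about 10 µL; 0% = median of vehicle wells and 100% = median of positive control wells; one replicate is shown; the record names a cut of 25% in any replicate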
UCH37 inh: inhibitors of human UCH37 deubiquitinase, primary screen, biochemical, Ub-AMC cleavage, fluorescence; Ubiquitin carboxyl-terminal hydrolase isozyme L5 (Homo sapiens), Q9Y5K5; purified proteasome/UCH37; inhibition, % (concentration not given with the values); 330,000 tested, 0.33% active; AID 588478, 2011;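 active = mean of two replicates above 20%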;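 note: 0% = compound-free wells with enzyme and 100% = wells lacking proteasome; stock transfer was 100 nL into about 20 µL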
Target sequence (Q9Y5K5 whole entry, looked up): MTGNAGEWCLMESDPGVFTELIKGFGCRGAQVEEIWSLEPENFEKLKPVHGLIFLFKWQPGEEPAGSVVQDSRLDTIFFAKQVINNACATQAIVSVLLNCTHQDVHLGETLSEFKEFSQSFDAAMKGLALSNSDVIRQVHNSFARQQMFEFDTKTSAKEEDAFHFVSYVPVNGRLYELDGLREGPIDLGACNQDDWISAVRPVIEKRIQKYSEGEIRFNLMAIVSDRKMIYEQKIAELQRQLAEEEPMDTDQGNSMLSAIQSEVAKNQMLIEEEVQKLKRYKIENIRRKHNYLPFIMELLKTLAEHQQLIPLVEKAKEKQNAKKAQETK
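Material: human UCH37 enzyme supplied as purified proteasome complex. Measure: % inhibition of Ub-AMC cleavage fluorescence. Medium: pH 7.4 Tris-HCl (50 mM) with ovalbumin, ATP-MgCl2, DTT. Times: 30 min preincubation with enzyme, 25 min cleavage at room temperature. Detection: AMC fluorescence intensity at 355/460 nm.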
ALR inh: inhibitors of human ALR sulfhydryl oxidase, primary screen, biochemical, H2O2 detection, HRP-luminol luminescence, single point | FAD-linked sulfhydryl oxidase ALR (Homo sapiens), P55789 | purified ALR, DTT oxidation | AID 485317, 2010 | 290,000 tested, 3.8% active | inhibition, % (concentration not given with the values);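 active = mean and each replicate at 75% or more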;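 note: stock transfer was 7.5 nL into about 7.5 µL; 0% = neutral wells and 100% = wells with inactivated enzyme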
FGF22 binding: binders of human FGF22 protein, primary screen, FGF22 synaptogenesis inhibitor project, biophysical, thermal shift, single point; Fibroblast growth factor 22 (Homo sapiens), Q9HCT0; recombinant FGF22 thermal shift, SYPRO orange fluorescence; percent of sucrose octasulfate shift, DMSO zero; calls only at 9.99 µM; 340,000 tested, 1.5% active; AID 651658, 2012;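 active = melting point raised past a set limit in the mean and every replicate; three in four hits are not shown here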
Target sequence (Q9HCT0 whole entry, looked up): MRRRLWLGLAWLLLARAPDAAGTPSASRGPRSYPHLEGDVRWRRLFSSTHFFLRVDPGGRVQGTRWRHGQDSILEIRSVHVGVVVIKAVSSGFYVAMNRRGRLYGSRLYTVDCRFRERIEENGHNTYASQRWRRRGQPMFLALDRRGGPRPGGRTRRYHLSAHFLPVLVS
B2AR ag: beta2AR agonists driving receptor internalization, primary screen, cell-based, FAP fluorogen, flow cytometry; Beta-2 adrenergic receptor (Homo sapiens), P07550; Am2.2-beta2AR cells; reference of the scale not given here; 340,000 tested, 0.43% active; AID 504454, 2011; response, % (test concentration not listed);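 active = response above a set limit, near 3 SD of response in nonfluorescent compounds, cut at about 42% in these data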;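 note: stock transfer was 100 nL into about 11 µL; a reference agonist was the positive control; negative values mostly stem from fluorescent compounds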
Target sequence (P07550 whole entry, looked up): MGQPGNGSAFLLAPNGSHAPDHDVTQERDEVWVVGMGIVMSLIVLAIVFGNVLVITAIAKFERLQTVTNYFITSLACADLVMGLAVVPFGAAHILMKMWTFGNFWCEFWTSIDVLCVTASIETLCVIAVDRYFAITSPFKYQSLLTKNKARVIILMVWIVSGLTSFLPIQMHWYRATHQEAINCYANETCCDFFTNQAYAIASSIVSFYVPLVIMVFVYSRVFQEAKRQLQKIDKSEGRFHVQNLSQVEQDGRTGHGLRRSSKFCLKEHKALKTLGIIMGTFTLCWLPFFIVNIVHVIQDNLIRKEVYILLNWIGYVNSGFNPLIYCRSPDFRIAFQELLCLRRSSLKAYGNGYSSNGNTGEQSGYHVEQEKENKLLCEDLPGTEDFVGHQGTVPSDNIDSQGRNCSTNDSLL
E coli growth: E. coli growth inhibition, primary screen, OD600; Escherichia coli growth, 23 h; stronger effect = lower value; OD600 absorbance (test concentration not listed); 330,000 tested, 0.21% active; AID 1053175, 2014;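 active = OD600 absorbance below the run mean of sample wells minus 3.6 SD, in any replicate, cut at about 0.56 in these data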;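 note: stock transfer was 300 nL into about 60 µL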
HNF4A DNA FP: change in binding of human HNF4A to DNA, primary screen, biochemical, fluorescence polarization, FITC-DNA | activity change, % at 10 µM | 1 h | Hepatocyte nuclear factor 4-alpha (Homo sapiens), P41235 | 360,000 tested, 0.3% active; in the data active = activity change above about 30%, passing the limit was not always enough;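 note: controls were the assay level and a saturating level of protein; the project sought stronger binding though the title names inhibitors; some compounds called inactive have numbers as strong as hits; positive values seem to mean higher polarization but the record does not say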
* hit, by the source's call. Some of the compounds tested; count on the stated rates, not on these rows.

Screening Cc1cccc(-n2c(C)cc(C(=S)N3CCOCC3)c2C)c1C returned LANA-H2B inh 2.3, UCH37 inh 1.2, ALR inh -5, FGF22 binding inactive, B2AR ag 0, E coli growth 0.73 and HNF4A DNA FP 3.0.
For c1ccc(Oc2ccc(-c3ccn[nH]3)cc2)cc1 the results were LANA-H2B inh -3.0, UCH37 inh 3.8, FGF22 binding inactive, B2AR ag -7, E coli growth 0.62 and HNF4A DNA FP 6.4.
`Cc1c(NC(=O)c2cccc(F)c2)c(=O)n(-c2ccccc2)n1C` gave LANA-H2B inh 5.5, UCH37 inh 3.8, ALR inh -5, FGF22 binding inactive, B2AR ag 7, E coli growth 0.71 and HNF4A DNA FP -3.1.
Nc1c(NC=O)c(=O)n(Cc2ccccc2)c(=O)n1Cc1ccccc1 was read as LANA-H2B inh -0.2, UCH37 inh 2.9, ALR inh 4, FGF22 binding inactive, B2AR ag -2, E coli growth 0.71 and HNF4A DNA FP -0.6.
For CCCNC(=O)C1CCN(S(=O)(=O)c2c(C)noc2/C=C\c2ccc(OC)cc2)CC1 the results were LANA-H2B inh 3.2, UCH37 inh -23, ALR inh 0, FGF22 binding inactive, B2AR ag 1, E coli growth 0.73 and HNF4A DNA FP 2.7.
For CCN(C(=O)COC(=O)c1c(C)c(-c2ccccc2)nc2ccccc12)C1CCS(=O)(=O)C1 (stereo unspecified) the results were LANA-H2B inh -3.4, UCH37 inh -0.5, ALR inh -8, FGF22 binding inactive, B2AR ag -4, E coli growth 0.71 and HNF4A DNA FP -5.3.
CCCN1CCC(NC(=O)CCc2nnc(-c3ccccc3)o2)CC1 was read as LANA-H2B inh 1.7, UCH37 inh 2.7, ALR inh -6, B2AR ag -5, E coli growth 0.73 and HNF4A DNA FP -2.9.
`CCN1CCN(C(=S)Nc2ccsc2C(=O)OC)CC1` gave LANA-H2B inh -0.6, UCH37 inh 5.5, ALR inh 3, FGF22 binding inactive, B2AR ag -3, E coli growth 0.65 and HNF4A DNA FP 4.0.
O=C(NNC(=O)C1CCN(Cc2ccccc2)CC1)c1cccc(Cl)c1 was read as LANA-H2B inh -2.6, UCH37 inh 2.5, ALR inh -7, B2AR ag -3, E coli growth 0.74 and HNF4A DNA FP -0.8.
Screening O=S(=O)(c1cc(Cl)ccc1Cl)N1CCNCC1 returned LANA-H2B inh -5.1, UCH37 inh -0.8, ALR inh -9, B2AR ag -3, E coli growth 0.72 and HNF4A DNA FP 3.3.
`Cc1ccccc1OCCNC(=O)CNC(=O)c1ccccc1O` gave LANA-H2B inh -148, UCH37 inh -20, ALR inh 8, FGF22 binding inactive, B2AR ag -5, E coli growth 0.72 and HNF4A DNA FP -1.4.
`CCc1nnc(NS(=O)(=O)c2ccc(NC(=O)c3ccc(S(=O)(=O)N(CC)CC)cc3)cc2)s1` gave LANA-H2B inh 1.1, UCH37 inh 1.0, ALR inh -3, FGF22 binding inactive, B2AR ag 1, E coli growth 0.7 and HNF4A DNA FP -1.4.
For COc1ccccc1C(=O)Nc1ccc(Oc2nnc(-c3ccc(C)cc3)c3ccccc23)cc1 the results were LANA-H2B inh 0.7, UCH37 inh 4.5, ALR inh -7, B2AR ag 1, E coli growth 0.72 and HNF4A DNA FP 1.4.
Screening COc1ccc(C(=O)COC(=O)[C@@H](NS(=O)(=O)c2ccccc2)C(C)C)cc1 returned LANA-H2B inh -3.8, UCH37 inh -0.2, ALR inh -2, FGF22 binding inactive, B2AR ag 1, E coli growth 0.69 and HNF4A DNA FP 8.5.
`O=C(OCCNc1nc(-c2ccccc2)nc2ccccc12)c1ccncc1` gave LANA-H2B inh 0.5, UCH37 inh 1.6, ALR inh 22, FGF22 binding inactive, B2AR ag 1, E coli growth 0.68 and HNF4A DNA FP 2.0.
Screening CC(C)CCC(O)(CCC(C)C)C(=O)NN1CCCCC1 returned LANA-H2B inh -0.4, UCH37 inh 0.1, ALR inh -3, B2AR ag 5, E coli growth 0.69 and HNF4A DNA FP 3.3.
For CC(=O)Nc1sc(-c2ccc(Cl)cc2)nc1-c1ccccc1 the results were LANA-H2B inh 2.2, UCH37 inh -7.0, ALR inh -21, FGF22 binding inactive, B2AR ag -14, E coli growth 0.69 and HNF4A DNA FP -2.6.
CCOc1ccc(S(=O)(=O)NCCC(=O)OCC(=O)c2ccc(NC(C)=O)cc2)cc1 was read as LANA-H2B inh 0.7, UCH37 inh 1.5, ALR inh -3, FGF22 binding inactive, B2AR ag 11, E coli growth 0.66 and HNF4A DNA FP 2.4.
Screening C=CCn1c(/N=C/c2ccc3c(c2)OCO3)nc2ccccc21 returned LANA-H2B inh -4.7, B2AR ag 2 and HNF4A DNA FP -0.3.
Screening CCNc1ccc(S(=O)(=O)N(C)C)cc1NCC(=O)Nc1ccccc1Cl returned LANA-H2B inh 4.2, UCH37 inh 1.0, ALR inh 99*, FGF22 binding inactive, B2AR ag 1, E coli growth 0.67 and HNF4A DNA FP -3.5.
For O=C(COc1cc2oc(=O)cc(-c3ccccc3)c2cc1Cl)NCC1CCC(C(=O)O)CC1 (stereo unspecified) the results were LANA-H2B inh -3.2, UCH37 inh 1.4, ALR inh 0, FGF22 binding inactive, B2AR ag 1, E coli growth 0.64 and HNF4A DNA FP -0.4.
`O=C(NCCCN1CCOCC1)C(=O)N/N=C/c1ccccc1Cl` gave LANA-H2B inh -2.0, ALR inh -3, FGF22 binding inactive, B2AR ag 0 and HNF4A DNA FP 0.7.
Screening COc1ccc(CC(=O)Nc2c3c(nn2C(C)(C)C)CS(=O)C3)cc1 (stereo unspecified) returned LANA-H2B inh -1.0, UCH37 inh 5.6, FGF22 binding inactive, B2AR ag 13, E coli growth 0.69 and HNF4A DNA FP -3.8.
Cc1ccc(NC(=O)CSc2nc3ccccc3nc2N2CCOCC2)c(C)c1 was read as LANA-H2B inh 1.2, UCH37 inh 0.6, ALR inh -18, FGF22 binding inactive, B2AR ag -9, E coli growth 0.69 and HNF4A DNA FP 0.3.
`Cc1ccc(S(=O)(=O)N2CCOCC2)cc1NC(=O)COC(=O)Cc1cccs1` gave LANA-H2B inh 0.2, UCH37 inh 1.4, ALR inh -5, FGF22 binding inactive, B2AR ag 2, E coli growth 0.68 and HNF4A DNA FP -2.3.
`Cn1cc(C(=O)Nc2ccc(Cl)c(Cl)c2)cn1` gave LANA-H2B inh -2.3, UCH37 inh 3.9, ALR inh -2, FGF22 binding inactive, B2AR ag -2, E coli growth 0.65 and HNF4A DNA FP 1.8.
For COc1ccc(NC(=O)NN2CCN(C)CC2)cc1 the results were LANA-H2B inh 2.4, UCH37 inh 5.6, ALR inh -23, FGF22 binding inactive, B2AR ag 1, E coli growth 0.7 and HNF4A DNA FP -2.7.
For O=C(Nc1nnc(-c2ccc(Cl)cc2)o1)C1CCCCC1 the results were LANA-H2B inh 0.1, UCH37 inh 2.4, ALR inh -5, FGF22 binding inactive, B2AR ag 0, E coli growth 0.7 and HNF4A DNA FP -0.3.
For CN1/C(=C/C(=O)c2ccc(Cl)cc2)Sc2cc3c(cc21)OCO3 the results were LANA-H2B inh 7.1, UCH37 inh -3.3, B2AR ag 9, E coli growth 0.7 and HNF4A DNA FP 45*.
COc1ccc(NC(=O)c2cc(-c3ccc(C)o3)nc3ccccc23)c(OC)c1 was read as LANA-H2B inh 2.4, UCH37 inh -12, ALR inh -17, FGF22 binding inactive, B2AR ag 14, E coli growth 0.64 and HNF4A DNA FP 1.0.
Screening C=CCn1c(CCCNC(=O)CCC)nc2ccccc21 returned LANA-H2B inh -4.4, UCH37 inh 2.9, ALR inh -5, B2AR ag 0, E coli growth 0.68 and HNF4A DNA FP 1.7.
For C=CCn1c(C)cc(-c2csc(NC(=O)CCc3nc4ccccc4c(=O)[nH]3)n2)c1C the results were LANA-H2B inh -0.1, UCH37 inh 4.9, ALR inh -14, FGF22 binding inactive, B2AR ag 10, E coli growth 0.66 and HNF4A DNA FP 2.9.
For C[C@H](NC(=O)[C@H]1N2C(=O)c3ccccc3C2SC1(C)C)C(=O)N1CCC[C@H]1C(=O)O (stereo partly specified) the results were LANA-H2B inh -7.6, UCH37 inh 2.0, ALR inh -23, FGF22 binding inactive, B2AR ag -8, E coli growth 0.78 and HNF4A DNA FP 0.8.
`CC(C)CNC(=O)CC(=O)N/N=C/c1cccs1` gave LANA-H2B inh -2.1, ALR inh -5, B2AR ag -3 and HNF4A DNA FP 0.1.
O=C(NCc1cccnc1)C1CC(=O)N(C2CCCCC2)C1 (stereo unspecified) was read as LANA-H2B inh 3.4, UCH37 inh 5.3, ALR inh -11, B2AR ag 3, E coli growth 0.68 and HNF4A DNA FP -5.0.
`CCCCN(CC)C(=O)C1CCC(CNS(=O)(=O)c2cccc3nsnc23)CC1` (stereo unspecified) gave LANA-H2B inh 3.3, UCH37 inh 1.5, ALR inh 0, FGF22 binding inactive, B2AR ag -3, E coli growth 0.64 and HNF4A DNA FP 4.0.
Screening CN1CCN(c2cc(=O)n(Cc3ccc(F)cc3)c(=O)[nH]2)CC1 returned LANA-H2B inh -1.7, UCH37 inh 1.9, ALR inh 34, FGF22 binding inactive, B2AR ag 22, E coli growth 0.74 and HNF4A DNA FP -2.3.
COC1=C/C(=C/c2c(N)n3nc(CC(=O)N4CCCC4)sc3nc2=O)C=CC1=O was read as LANA-H2B inh 1.1, UCH37 inh 13, ALR inh 84*, FGF22 binding inactive, B2AR ag -324, E coli growth 0.69 and HNF4A DNA FP 17.
For Nc1cc(-c2ccco2)no1 the results were LANA-H2B inh -0.5, UCH37 inh -0.3, B2AR ag -4, E coli growth 0.71 and HNF4A DNA FP 3.9.
For Cc1cc(/C=C2\SC(=S)N(C)C2=O)c(C)n1-c1cccc(O)c1 the results were LANA-H2B inh -2.8, UCH37 inh 5.1, ALR inh -41, FGF22 binding inactive, B2AR ag -355, E coli growth 0.69 and HNF4A DNA FP 72*.
`CCC(=O)N1CCN(c2ccccc2NC(=O)Cc2ccccc2)CC1` gave LANA-H2B inh -4.4, UCH37 inh 0.6, ALR inh -13, B2AR ag -3, E coli growth 0.64 and HNF4A DNA FP -0.3.
Screening O=C(c1ccc2ccccc2n1)N1CCN(Cc2c(F)cccc2Cl)CC1 returned LANA-H2B inh 2.1, UCH37 inh 5.9, ALR inh -9, FGF22 binding inactive, B2AR ag -3, E coli growth 0.64 and HNF4A DNA FP 2.2.
C=CCN(C#N)c1nc(OC)nc(N2CCCC2)n1 was read as LANA-H2B inh -4.1, UCH37 inh 3.8, ALR inh 2, B2AR ag -1, E coli growth 0.71 and HNF4A DNA FP 0.1.
For COc1ccc(/C=N/N=C2/C(=O)Nc3ccccc32)cc1O the results were LANA-H2B inh 6.1, ALR inh 1, FGF22 binding inactive, B2AR ag 6 and HNF4A DNA FP 3.3.

A section of the results above:
COC1=C/C(=C/c2c(N)n3nc(CC(=O)N4CCCC4)sc3nc2=O)C=CC1=O was read as LANA-H2B inh 1.1, UCH37 inh 13, ALR inh 84*, FGF22 binding inactive, B2AR ag -324, E coli growth 0.69 and HNF4A DNA FP 17.
For Nc1cc(-c2ccco2)no1 the results were LANA-H2B inh -0.5, UCH37 inh -0.3, B2AR ag -4, E coli growth 0.71 and HNF4A DNA FP 3.9.
